Screens: PubChem, National Center for Advancing Translational Sciences (NCATS)
Vaccinia mCherry: qHTS for Stage-Specific Inhibitors of Vaccinia Orthopoxvirus: mCherry Reporter Primary qHTS. Vaccinia virus mCherry reporter infection, fluorescence; about a quarter of the inactives have no number. Potency, µM (top dose mostly 36.5 µM), without a hit: at the top dose activity change, negative = inhibition, most hits filed as inhibitors. 0.63% of 310,000 active. AID 720579, 2013; active = well fitted inhibition curve with a large enough effect; inconclusive = small, poorly fitted or top-dose-only effect; inactive = no such curve, though single readings can be large or run the other way; tested in A549 cells; note: nearly all actives have a fitted effect of over 35% in size; inactives centre near -10
Vaccinia Venus: qHTS for Stage-Specific Inhibitors of Vaccinia Orthopoxvirus: Venus Reporter Primary qHTS. 0.46% of 330,000 active. Vaccinia virus Venus reporter expression, fluorescence. Potency, µM (doses to about 36.5 µM), without a hit: at the top dose activity change, negative = inhibition, actives largely listed as inhibitors; active means well fitted inhibition curve with a large enough effect; inconclusive means small, poorly fitted or top-dose-only effect; inactive means no such curve, though single readings can be large or run the other way; tested in A549 cells; note: nearly all actives have a fitted effect of over 30% in size; inactives centre near -10
Active calls of the source: *; i = inactive; ? = inconclusive; nt = no result given; [ ] = another dose, or the depositor's remark. % is set by controls: 0 for no effect and ±100 for the full control effect; potency is the fitted concentration of half-maximal effect. Compounds were not picked by outcome; any-hit rate near 0.82%.

SMILES | Vaccinia mCherry | Vaccinia Venus
CCNc1c([N+](=O)[O-])c(=O)oc2ccccc12 | -6% | -5%
Cc1nc2ccccc2c(=O)n1/N=C/c1ccc(N(C)C)cc1 | -13% | -5%
Cc1cccc(NS(=O)(=O)c2cccc3nsnc23)c1 | nt | -7%
COC(=O)C[C@H]1C=C[C@H](NC(=O)Nc2ccccc2OC)[C@@H](CO)O1 | -3% | -19%
NC(Cc1ccccc1)c1nc(-c2ccccc2)no1 (stereo not given) | -5% | -16%
O=C(CCCOc1cccc(Br)c1)NCCOc1ccccc1 | 3% | -5%
CN1CCN(c2ccc(S(=O)(=O)N3CCOCC3)cc2)CC1 | i | -6%
CSc1cccc(NC(=O)c2c(Cl)cnn2C)c1 | -16% | 6%
COC(=O)CSc1snnc1-c1ccc(Cl)c(Cl)c1 | -4% | 5%
COc1ccc(Br)c(C(=O)N2CCCC2(C)C(=O)NCC(C)C)c1 (stereo not given) | -1% | ?
CCC/C(O)=C1\C(=O)CC(C)(C)CC1=NCc1ccccc1 | i | 17%
Cc1nn(Cc2ccccc2)c(C)c1NC(=O)CSc1nnc(-c2cc(Cl)ccc2O)n1C | -17% | -5%
CCn1c(SCC(=O)Nc2ccc(C(C)=O)cc2)nnc1C1CC1 | -26% | -1%
CCOC(=O)CSc1nc(N)c(C#N)c(-c2ccc(OCC)cc2)c1C#N | -15% | -4%
Cn1c(=O)n(CCc2ccccc2)c2ccccc21 | -9% | -4%
O=C1CSC(=S)N1N=C1CCCCCC1 | 0% | 12%
COC(=O)C1CC(Cl)CN1c1ncc(C(F)(F)F)cc1Cl (stereo not given) | i | -6%
CN(C)S(=O)(=O)c1cccc(COc2ncnc3c(Cl)cc(Cl)cc23)c1 | -8% | -2%
CN1CCN(/C=N/c2c(C#N)cnn2-c2ccccc2)CC1 | -10% | -9%
COc1cc(NC(=S)N2CCN(c3ccccn3)CC2)cc(OC)c1 | -5% | -14%
CC(OC(=O)c1cc(=O)[nH]c2ccccc12)C(=O)Nc1ccccc1F (stereo not given) | -8% | 4%
CCN(CC)S(=O)(=O)c1ccc(C(=O)NCC(c2ccc(OC)cc2)N2CCOCC2)cc1 (stereo not given) | -1% | -6%
Cc1ccccc1C(=O)Nc1nc(-c2nnn(-c3ccc(C(C)C)cc3)c2C)ns1 | -15% | -17%
C=CCn1c(=N)n(CC(=O)c2ccc(Cl)cc2)c2ccccc21 | ? | -13%
CCOC(=O)Nc1ccc2c(CN3CCN(S(=O)(=O)c4ccccc4F)CC3)cc(=O)oc2c1 | ? | -22%
CCCCn1c(=N)n(CC(=O)O)c2ccccc21 | -2% | 4%
COc1ccc(NC(=O)COc2ccc(S(=O)(=O)NC3CCCCC3)cc2)cc1OC | -7% | -7%
Cc1ccc(CNC(=O)c2c(C)oc3nc(C)nc(N4CCOCC4)c23)cc1 | i | -12%
S=C(Nc1ccc(N2CCOCC2)cc1)Nc1ccc2nc(-c3ccco3)c(-c3ccco3)nc2c1 | -19% | -5%
COc1ccc(NC(=O)CSc2nc3ccccc3nc2N2CCC(C)CC2)cc1 | -15% | -11%
Cn1nc(-c2ccc(Cl)cc2)cc1NC(=O)CSCC(=O)O | -1% | -4%
O=C(O)c1ccccc1NS(=O)(=O)c1cccc(NS(=O)(=O)c2cc(Br)ccc2Br)c1 | i | -14%
O=C(COc1ccc([N+](=O)[O-])cc1)NNC(=O)Nc1cccc(F)c1 | i | -7%
CC1=C([N+](=O)[O-])C(c2ccccc2Cl)NC(=O)N1 (stereo not given) | -2% | 7%
O=C(NCCCc1ccccc1)C(=O)NCC1OCCN1S(=O)(=O)c1cc(F)ccc1F (stereo not given) | i | -2%
CCOCC(=O)Nc1ccc(S(=O)(=O)Nc2ncccn2)cc1 | nt | -13%
CCCCCn1ccc(=N)cc1 | nt | ?
COCCN1C(=O)CS/C1=C(/C#N)C(=O)NCc1ccco1 | 15% | 59%[activator]
Cc1ccc(CNC(=O)CN2C(=O)C3(SCC(=O)N3c3cc(C)cc(C)c3)c3ccccc32)cc1 (stereo not given) | -25% | -27%
Cc1c(C(=O)Nc2ccc3c(c2)OCO3)sc2nc(-c3ccccc3)cn12 | -29% | -23%
CCOc1ccc(C(=O)NCC(=O)N2CCC3(CC2)NCCc2[nH]cnc23)cc1 | -25% | -6%
CCCCNS(=O)(=O)c1ccc2nc(-c3cccnc3)cc(C(=O)NCCCOC(C)C)c2c1 | -9% | -5%
CC1(C)CC(NC(=O)C(Cl)(Cl)Cl)CC(C)(C)N1 | -3% | 9%
Cc1ccc(N2C(=O)CS(=O)(=O)C23C(=O)N(C)c2ccccc23)cc1F (stereo not given) | 13% | 0%
N/C(=N\O)c1ccccc1N1CCCCC1 | i | -12%
O=C(NCc1ccc(F)cc1F)[C@@H]1CCCN1C(=O)[C@@H]1CCCN1 | -1% | 1%
CCOc1ccccc1/C=N/NC(=O)c1cc(C(C)C)[nH]n1 | 1% | 0%
O=C(NCCc1ccccc1)C1CCCN(C(=O)Nc2ccc(F)cc2)C1 (stereo not given) | -4% | -13%
Cc1ccc2c(c1)-c1c(cnc3cc(-c4ccc(Cl)cc4)nn13)CO2 | 3% | 4%
COc1ccc2c(c1OC)C(=O)N1c3cccc(Cl)c3C(=O)OC21 (stereo not given) | -5% | -10%
O=C(CC1CCCCC1)NCCCN1CCOCC1 | -14% | -7%
CCOC(=O)N1CCN(C(=O)c2ccc(CNS(=O)(=O)c3ccc(OC)cc3)cc2)CC1 | -17% | -23%
COc1cc2nn(-c3ccccc3N)nc2cc1OC | -2% | -12%
Cc1cccc(OC(=O)c2ccncc2)c1C | i | -17%
CCc1ccc(C(=O)c2cn(CC(=O)Nc3cc(OC)cc(OC)c3)c3ccc(CC)cc3c2=O)cc1 | -26% | -30%
Cc1cc(C)c(C#N)c(SCC(=O)N(CCC#N)c2ccc3c(c2)OCCO3)n1 | -8% | -27%
Cn1c(=O)c(S(=O)(=O)C(C)(C)C)c(O)c2ccccc21 | i | -5%
COc1ccc(C(=O)N2CCN(C(=O)COc3ccc(Br)cc3)CC2)cc1OC | -15% | -10%
CN(CC(=O)NC1CC1)S(=O)(=O)c1ccc(Br)cc1 | -16% | -13%
O=C(NCc1ccc2c(c1)CCO2)Nc1ccccc1 | -13% | -7%
Other structures follow:
SMILES | Vaccinia mCherry | Vaccinia Venus
Cc1ccc(S(=O)(=O)N2CCN(c3nc(-c4cccs4)nc(C)c3C)CC2)cc1 | -14% | 3%
CCOc1ncccc1C(=O)OCc1ccccc1 | i | -10%
CCN1CCN(c2cc(C)c3cc(NC(=S)N4CCCC4)ccc3n2)CC1 | -23% | ?
CCOC(=O)c1cc(S(=O)(=O)N(C)c2ccccc2)[nH]n1 | -7% | -12%
O=S(=O)(Nc1ccc(Cl)cn1)c1cnc(Cl)c(Br)c1 | 1% | -11%
COc1cc(CNC2CCCC2)c(Br)cc1OCc1ccccc1 | -23% | -17%
COC(=O)c1c(-c2ccc(C)cc2)csc1NC(=O)C1CC=CCC1C(=O)O (stereo not given) | 0% | -9%
COc1ccc(C2C(C(N)=O)=C(C)Nc3nc(-c4ccccc4)nn32)cc1OC (stereo not given) | -11% | -4%
COc1cc(OC)cc(C(=O)NNC(=O)CCNS(=O)(=O)c2ccc(C)c(C)c2)c1 | -5% | -19%
COc1cccc2cc(C(=O)N3CCc4ccccc43)c(=O)oc12 | -15% | -7%
O=C(NCCc1nnc2ccc(NCc3ccc(Cl)cc3)nn12)c1ccccc1 | -8% | -8%
CCOC(=O)c1ccc(NC(=O)c2c(N3CCCC3=O)c3cc(OC)ccc3n2C)cc1 | -6% | -1%
CN(C)S(=O)(=O)c1cccc(-c2nn(-c3ccccc3)cc2/C=C2\SC(=S)N(CC(=O)O)C2=O)c1 | ? | -10%
Cc1ccc(NC(=O)COS(=O)c2ccc(C)cc2)cc1 (stereo not given) | -10% | -5%
O=C(NC1CCCCC1)C1CCN(c2ncccn2)CC1 | 11% | 2%
CCc1cccc(C)c1NC(=O)COC(=O)C(NS(=O)(=O)c1ccc(Cl)cc1)C(C)O (stereo not given) | -10% | -4%
CCC(C)NC(=O)c1cn(-c2cccc(C)n2)cn1 (stereo not given) | nt | -9%
CN1CCN(C(=O)c2ccc3c(=O)n4c(nc3c2)CCCCC4)CC1 | nt | -9%
c1ccc(CC2CCN(c3nnnn3-c3ccccc3)CC2)cc1 | i | -17%
COc1ccc(-n2nc(C(=O)NCC(=O)N3CCC(C)CC3)c3ccccc3c2=O)c(OC)c1 | -21% | -5%
O=C(NCc1ccccc1Cl)c1ccc2c(c1)nnn2C1CCCC1 | -7% | 3%
O=C(C1=C[C@H](c2ccc(Br)cc2)C[C@H](OCCCCO)O1)N1CCN(Cc2ccccc2)CC1 | -20% | ?
C[C@H](NC(=O)OC(C)(C)C)C(=O)c1ccco1 | i | -18%
CN(C)C(=O)Oc1ccc(OC(=O)N(C)C)cc1 | -10%[1.46 µM] | -13%
CC1N/C(=C\C(=O)c2ccccc2)N(O)C1(C)C (stereo not given) | nt | -10%
COc1ccc(-c2nn3c(-c4cc(-c5ccccc5)n[nH]4)nnc3s2)cc1OC | ? | ?
COc1ccccc1COc1ccc2c(C)c(CCC(=O)O)c(=O)oc2c1C | -7% | -7%
CSc1nc(N)c(N=Nc2ccc([As](=O)(O)O)cc2)c(=O)[nH]1 | -6% | 4%
CC(C)CNC(=O)c1ccc(C2SCC(=O)N2Cc2ccccc2)cc1 (stereo not given) | -14% | -12%
COc1ccc(S(=O)(=O)NC(=O)C2(C)CCN2C(=O)CC2CC2)cc1 (stereo not given) | 5% | -5%
Cc1cc(C)cc(NS(=O)(=O)c2cnc(Cl)c(Cl)c2)c1 | nt | ?
O=C(CCC(=O)N1CCCCCC1)Nc1ccc([N+](=O)[O-])cc1 | -11% | -9%
Cc1ccc(-c2n[nH]c(=S)n2/N=C/c2ccncc2)cc1 | 2% | 1%
COc1ccc(-c2sc3cc4c(cc3c2C#CC2(O)CCCCC2)OCO4)cc1 | ? | ?
CC1CCc2sc(C(=O)OCC(=O)NCc3ccc(F)cc3)cc2C1 (stereo not given) | ? | ?
CC(C)(C)c1ccc(/C=C2\SC(=O)N=C2N)cc1 | -10% | -13%
CC1=C(C)CC2(C(=O)NC(=O)NC2=O)C(C)C1 (stereo not given) | i | -2%
Cc1ccc2oc(=O)c(/C=C(\O)CC(C)C)nc2c1 | ? | ?
Cc1c(Cl)cccc1NC(=O)C(=O)NNC(=O)c1ccccc1F | -22% | -8%
COc1cc(C2c3c(c(C)c(C)oc3=O)Oc3c(C)c(C)oc(=O)c32)ccc1OS(=O)(=O)c1ccc(C)cc1 | -19% | -22%
COc1ccc(OCCSc2nnc(-c3ccccc3)n2N)cc1 | -23% | -16%
COc1ccc(C(=O)NCC(=O)OCc2csc(-c3ccccc3)n2)cc1 | i | -5%
COCCNC(=O)CSc1nnc(NC(=O)C2CC(=O)N(c3ccccc3OC)C2)s1 (stereo not given) | -9% | -4%
Cc1ccc(CSc2nnc(-c3ccncc3)n2C)cc1 | -13% | -11%
O=Cc1ccc(B(O)O)cc1 | -4% | -12%
CCN(CC)C(=O)c1c[nH]c2ccc(S(=O)(=O)Nc3cc(C)cc(C)c3)cc2c1=O | -12% | -4%
CC(C)C(c1nnnn1Cc1ccc(F)cc1)N1CCN(C2CCCC2)CC1 (stereo not given) | -14% | -2%
Cc1cc([N+](=O)[O-])ccc1NC(=O)CCC(=O)N1CCCCC1 | i | -4%
C=C(C)CSc1nc2sc3c(c2c(=O)n1-c1ccccc1)CCN(C)C3 | -11% | ?
COc1ccc(NC2C=CS(=O)(=O)C2)c(OC)c1 (stereo not given) | -21% | -26%
CCc1ccc(CNC(=O)c2ccc(-c3nc(CSc4ccc(C)cc4)c(C)o3)cc2)cc1 | -27% | ?
CN(CCc1ccccc1)C(=O)c1cccc(NC(=O)Cc2cccc(NC(=O)C3CCCN(C(=O)C4CCCCC4)C3)c2)c1 (stereo not given) | -32% | -13%
CC(=O)c1ccc(NC(=S)NC(NC(=O)c2ccco2)C(Cl)(Cl)Cl)cc1 (stereo not given) | nt | -22%
CSc1ccc(C(=O)C2CCCN(S(=O)(=O)N(C)C)C2)cc1 (stereo not given) | -15% | -12%
